AF4-AF9 inh = MLL-AF4/AF9 protein interaction inhibition. P42568. 350,000 compounds, 0.47% hits. inhibition, % at 10 µM. AlphaScreen, biotin-AF4 peptide binding to FLAG-AF9;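 active = every replicate reaching a set inhibition limit, whatever the replicate mean, cut at about 25% in these data; inconclusive = mean inhibition reaches that limit but some replicates miss it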;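 note: 0% = plate neutral control median and 100% = total signal loss; the record names both 10 and 1 µM as test concentration; the first replicate is given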
Target sequence (P42568 whole entry, looked up): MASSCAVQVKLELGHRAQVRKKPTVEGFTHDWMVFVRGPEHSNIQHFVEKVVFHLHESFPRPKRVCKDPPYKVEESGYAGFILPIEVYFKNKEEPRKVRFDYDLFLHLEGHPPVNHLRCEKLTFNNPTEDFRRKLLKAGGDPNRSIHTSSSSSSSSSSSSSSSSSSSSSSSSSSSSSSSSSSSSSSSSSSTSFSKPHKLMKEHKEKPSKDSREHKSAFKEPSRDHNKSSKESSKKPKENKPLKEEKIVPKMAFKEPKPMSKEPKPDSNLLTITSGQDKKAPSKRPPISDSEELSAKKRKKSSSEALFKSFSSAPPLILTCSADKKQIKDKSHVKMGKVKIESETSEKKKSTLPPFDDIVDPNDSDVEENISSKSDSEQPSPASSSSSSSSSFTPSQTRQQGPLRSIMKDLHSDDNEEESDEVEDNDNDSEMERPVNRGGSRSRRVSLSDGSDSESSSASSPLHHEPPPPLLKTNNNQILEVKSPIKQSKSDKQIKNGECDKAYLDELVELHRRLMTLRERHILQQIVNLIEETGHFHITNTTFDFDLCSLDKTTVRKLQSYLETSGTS
T cruzi repl = T. cruzi replication inhibition; T. cruzi beta-gal in NIH3T3, luminescence, 90 h; inhibition, % (test concentration not listed); 300,000 compounds, 1.4% hits; AID 1885;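 active = mean inhibition across valid replicates above about 55%, limit read from the data; inconclusive = mean below that limit but half or more replicates reach it; inactive = mean below it, under half of replicates reach it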;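 note: signal also drops with host cell toxicity which is not excluded here; 0% = plate median of DMSO wells and 100% = zero luminescence signal; higher percent means less beta-gal luminescence so fewer parasites; stock transfer was 50 nL into about 50 µL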
RanGTP-Imp inh = inhibitors of RanGTP-importin-beta interaction, primary screen, biochemical, FRET, CFP-Ran, YFP-importin-beta, homogeneous | 300,000 compounds, 1.1% hits | cell-free CFP-Ran/YFP-importin-beta FRET ratio | inhibition, % (no concentration beside the values);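 active = most replicates above 15%; inconclusive = exactly half above 15%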;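 note: 0% = DMSO wells and 100% = Ran loaded with GDP instead of GTP; wells of about 40 µL received 100 nL stock; the first replicate is given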
Beta cell apopt = beta cell apoptosis inhibition | INS-1E cytokine-induced death, ATP luminescence, 48 h; percent of positive-control rescue, neutral wells zero | protection from apoptosis, % (test concentration not listed) | 300,000 compounds, 0.8% hits;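 active = all replicates at 75% or more, or half of them and the mean; inconclusive = half reach 75% but not the mean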;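 note: 0% = cytokine-treated negative control wells and 100% = positive control rescue; higher means more ATP so stronger rescue from cytokine killing; wells of about 40 µL received 100 nL stock; the first replicate is given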
rRNA inh HTS = selective bacterial rRNA inhibition in E. coli; E. coli WT GFP vs humanized-ribosome RFP mutants, fluorescence, 24 h; stronger effect = lower value; DMSO median 0, no signal -100; GFP signal change (wild-type ribosome), % (test concentration not listed); 350,000 compounds, 1.6% hits;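 active = significant combined selectivity score with lowered wild-type GFP, culture density cut under 30%, mutant RFP and density less affected; inactive = any of these conditions unmet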; note: one replicate is shown; some compounds called inactive have numbers as strong as hits
FGF22 binding = FGF22 (human) thermal shift binding; Q9HCT0; recombinant FGF22 thermal shift, SYPRO orange fluorescence; percent of sucrose octasulfate shift, DMSO zero; 340,000 compounds, 1.5% hits; calls only at 9.99 µM;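 active = melting point raised past a set limit in the mean and every replicate; inconclusive = no clear call; three in four hits are not shown here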
Target sequence (Q9HCT0 whole entry, looked up): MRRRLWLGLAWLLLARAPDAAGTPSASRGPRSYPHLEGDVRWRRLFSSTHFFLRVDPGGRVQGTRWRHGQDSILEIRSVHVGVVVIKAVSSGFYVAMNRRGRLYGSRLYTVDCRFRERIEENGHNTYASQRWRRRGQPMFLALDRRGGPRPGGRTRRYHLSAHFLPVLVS
Calb FLC = C. albicans growth modulation with fluconazole | C. albicans CaCi-2 (fluconazole-resistant clinical isolate) + fluconazole, Alamar Blue growth, 48 h | growth inhibition, % (concentration not given with the values) | 300,000 compounds, 0.57% hits | AID 1979;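 active = most replicates above 75%; inconclusive = exactly half above 75%; inactive = most below 75%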;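 note: all wells also contain fluconazole at 8 µg/ml as a sub-toxic cotreatment; 0% = median of DMSO wells and 100% = median of geldanamycin control wells; wells of about 8 µL received 7.5 nL stock; the first replicate is given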
ALR H2O2 inh = inhibitors of human sulfhydryl oxidase ALR. 290,000 compounds, 3.8% hits. P55789. inhibition, % (test concentration not listed). purified ALR, DTT oxidation, H2O2 HRP-luminol luminescence;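 active = mean and each replicate at 75% or more; inconclusive = only one of the two met; inactive = neither met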;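 note: stock transfer was 7.5 nL into about 7.5 µL; 0% = neutral wells and 100% = wells with inactivated enzyme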
Target sequence (P55789 whole entry, looked up): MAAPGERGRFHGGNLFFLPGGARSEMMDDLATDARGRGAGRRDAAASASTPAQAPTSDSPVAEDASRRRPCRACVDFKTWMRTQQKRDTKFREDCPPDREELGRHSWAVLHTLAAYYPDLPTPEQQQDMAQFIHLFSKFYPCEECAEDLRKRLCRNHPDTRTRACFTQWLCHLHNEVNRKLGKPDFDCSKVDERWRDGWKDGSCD
rRNA inh HTS OD600 = recorded beside rRNA inh HTS, whose call it bears; OD600 change, %; measured here: OD600 growth;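 optical density of the mix in the first replicate; 0 = DMSO median and -100 = no signal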
rRNA inh HTS RFP = also measured in rRNA inh HTS; calls as there; RFP signal change, %; measured here: RFP humanized mutant strains;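 first replicate; 0 = DMSO median and -100 = no signal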
An asterisk follows results filed as active; i = inactive; ? = inconclusive; nt = no result given; & = joins results of further samples. Not all compounds are listed; rates above refer to the full screens.

SMILES	AF4-AF9 inh	T cruzi repl	RanGTP-Imp inh	Beta cell apopt	rRNA inh HTS	rRNA inh HTS OD600	rRNA inh HTS RFP	FGF22 binding	Calb FLC	ALR H2O2 inh
CC(/C=N/NC(=O)c1ccccc1F)c1ccccc1 (stereo not given)	3.8	-13	4.3	0	5	-2	-2.7	i	5	-8
CCCC1CCC(c2ccc(C(N)=O)cc2)CC1 (stereo not given)	nt	11	-0.2	-3	nt	nt	nt	nt	15	-6
O=C(CCN1C(=O)c2ccccc2C1=O)NC(=S)Nc1ccccc1	2.5	-4	1.6	-2	1	5	2.3	i	6	nt
COCCN(CC(=O)Nc1ccccc1C(F)(F)F)C(=O)/C=C/c1ccc2ccccc2n1	-4.8	nt	nt	-7	6	4	-2.8	i	nt	-1
CCN(CC)C(=O)CCc1nnc(CCc2c[nH]c3ccccc23)o1	-1.0	-2	5.9	2	2	5	-1.6	nt	7	0
COc1ccc2c(c1)c1nc3ccccc3nc1n2Cc1ccc(OC)c(OC)c1	nt	6	-1.4	-3	nt	nt	nt	nt	5	5
COc1cccc(NC(=O)C(=O)NCc2ccncc2)c1	nt	-4	1.9	-4	nt	nt	nt	nt	-4	-21
CC(C)CC(NC(=O)OC(C)(C)C)c1cn([C@@H](Cc2cc3ccccc3[nH]2)C(=O)N2CCN(C(=O)OC(C)(C)C)CC2)nn1 (stereo not given in full)	8.9	22	-2.0	4	7	6	-4.9	i	25	-13
COC(=O)CCC(=O)NN1C(=O)c2ccccc2C1=O	0.3	0	1.3	8	18	14	2.0	i	-5	0
O=[N+]([O-])c1ccc(-c2cnc[nH]2)cc1	-3.3	17	-2.1	-3	4	6	-1.4	i	4	-17
COc1ccc(Cl)cc1NC(=O)CN(C)C(=O)Cc1n[nH]c(=O)c2ccccc12	1.7	-2	?	-2	15	11	2.7	i	nt	-1
CCOC(=O)CNC(=O)CSc1nc2ncc(Br)cc2[nH]1	nt	-5	2.2	0	nt	nt	nt	nt	-10	1
COc1ccc(N2CCN(c3oc(COc4ccc(Cl)cc4Cl)nc3C#N)CC2)cc1	nt	19	3.3	-6	-14	-11	7.5	nt	3	-2
CCCNC(=O)CN(Cc1ccco1)S(=O)(=O)c1ccc(OCC)cc1	nt	2	0.4	nt	nt	nt	nt	nt	-8	-6
Cc1cc(C)nc(/N=C2\NC(=O)CC(C(=O)O)N2c2ccc(Oc3ccccc3)cc2)n1 (stereo not given)	nt	4	-2.7	-11	nt	nt	nt	nt	1	13
CCOC(=O)C/C(C)=N/NC(=O)c1cccs1	4.7	-1	?	-1	3	-5	2.0	i	2	40
CCCCn1c(N)c(N(CCC(C)C)C(=O)COC(=O)c2ccco2)c(=O)[nH]c1=O	nt	-1	4.7	-2	nt	nt	nt	nt	4	-1
O=C(N/N=C/c1cccc(OC(=O)c2ccccc2Cl)c1)c1cccnc1	-14	-19	-0.5	1	-5	-9	3.3	i	0	?
CCOc1cccc(/C=C/c2cc(C(=O)O)c3ccccc3n2)c1OC	-0.6	11	1.7	3	-18	-7	0.4	i	0	nt
CC(=O)Nc1ccc2nc(-c3cccnc3)[nH]c2c1	nt	-26	4.8	-5	nt	nt	nt	nt	7	-3

Compound profiles, from the list above:
CCOC(=O)C/C(C)=N/NC(=O)c1cccs1 as listed: AF4-AF9 inh: 4.7; T cruzi repl: -1; RanGTP-Imp inh: ?; Beta cell apopt: -1; rRNA inh HTS: 3; rRNA inh HTS OD600: -5; rRNA inh HTS RFP: 2.0; FGF22 binding: i; Calb FLC: 2; ALR H2O2 inh: 40
CC(C)CC(NC(=O)OC(C)(C)C)c1cn([C@@H](Cc2cc3ccccc3[nH]2)C(=O)N2CCN(C(=O)OC(C)(C)C)CC2)nn1 (stereo not given in full) as listed: AF4-AF9 inh: 8.9; T cruzi repl: 22; RanGTP-Imp inh: -2.0; Beta cell apopt: 4; rRNA inh HTS: 7; rRNA inh HTS OD600: 6; rRNA inh HTS RFP: -4.9; FGF22 binding: i; Calb FLC: 25; ALR H2O2 inh: -13

Arranged by the number under rRNA inh HTS (high to low): 3 of the compounds above
Structure	rRNA inh HTS
COCCN(CC(=O)Nc1ccccc1C(F)(F)F)C(=O)/C=C/c1ccc2ccccc2n1	6
O=[N+]([O-])c1ccc(-c2cnc[nH]2)cc1	4
O=C(CCN1C(=O)c2ccccc2C1=O)NC(=S)Nc1ccccc1	1

Next section.
SMILES	AF4-AF9 inh	T cruzi repl	RanGTP-Imp inh	Beta cell apopt	rRNA inh HTS	rRNA inh HTS OD600	rRNA inh HTS RFP	FGF22 binding	Calb FLC	ALR H2O2 inh
O=C(OCc1nnc(-c2ccccc2)o1)c1ccc(Cl)cc1	nt	-9	-3.3	1	nt	nt	nt	nt	19	-12
C[C@H](CO)N1C[C@H](C)[C@@H](CN(C)C(=O)Nc2ccc(C(F)(F)F)cc2)Oc2c(NS(=O)(=O)c3cccs3)cccc2C1=O	-1.6&-4.6	nt	nt	3	-7&6	-17&-2	-0.6&-3.8	i	nt	-1
CC(=O)Oc1ccc(C(=O)Nn2cnnc2)cc1	nt	-12	11	-6	nt	nt	nt	nt	-2	-11
COc1ccccc1C(c1nnnn1C(C)(C)C)N1CCCCCC1 (stereo not given)	nt	1	-1.8	-4	nt	nt	nt	nt	10	1
O=C(CSc1nccc(-c2cccs2)n1)Nc1cccc(Cl)c1Cl	-3.4	-11	1.1	-4	3	6	2.0	i	-7	-9
COc1ccc(-c2cc(=NC(CC(C)C)C(=O)O)c3cc(C)ccc3o2)cc1 (stereo not given)	nt	11	5.0	-1	nt	nt	nt	nt	4	nt
Cc1sc2nc(SCc3ccc(C(=O)O)cc3)n(Cc3ccco3)c(=O)c2c1C	2.6	61*	-0.3	8	4	-4	5.9	i	-2	12
COc1ccccc1NC(=O)c1cc(S(=O)(=O)N2CCOCC2)ccc1Cl	nt	-3	2.0	-7	nt	nt	nt	nt	8	-16
O=C(CCCn1c(=O)[nH]c2cc(Cl)ccc2c1=O)NCCCN1CCCC1	nt	-10	3.1	-2	nt	nt	nt	nt	-5	11
Cc1cc(F)ccc1NC(=S)NC1CCCC1	2.2	-45	-2.0	-8	-2	-1	-3.6	i	-1	29
Cc1ccc(S(=O)(=O)NNC(=O)Nc2ccc(Cl)c(Cl)c2)cc1	-2.5	3	1.2	-7	-56	-82	-27	i	0	-2
Cc1ccc(C(=O)NCc2ccccc2)cc1Br	nt	14	-0.1	-1	nt	nt	nt	nt	-7	-1
Cc1ccc(N)cc1CN1CCCC1=O	nt	-2	2.6	0	nt	nt	nt	nt	-2	26
O=C(c1cccnc1)N1CCN(S(=O)(=O)c2ccc3ccccc3c2)CC1	nt	16	-4.1	0	nt	nt	nt	nt	-7	4
CSCCC(NC(=O)c1ccc(Cl)cc1Cl)C(=O)NCc1ccccn1 (stereo not given)	-0.1	8	-5.8	-3	0	-7	0.5	i	?	-5
NC(=O)CSc1nnc(-c2ccccn2)n1Cc1ccco1	-0.4	0	27	3	7	2	2.9	i	-1	-2
S=C(c1ccccc1)N1CCSCC1	-4.7	-7	1.8	nt	9	3	0.7	i	-14	nt
O=S(=O)(NCc1ccccc1)NCc1ccccc1	-4.2	-18	-3.1	-11	5	3	-0.5	i	4	-20
O=c1oc2ccccc2n1Cc1cccc(C(F)(F)F)c1	nt	nt	-2.5	5	-9	-1	-1.1	i	-3	-2
O=C(Nc1ccccc1Cl)C1C(c2ccccc2)C1(Cl)Cl (stereo not given)	-2.7	-3	1.5	4	-24	-34	3.1	i	-17	-3
CC(C)(C)c1ccc(S(=O)(=O)N2CCC(N3CCCCC3)CC2)cc1	-5.6	-31	-0.5	4	16	8	1.9	i	-2	3
O=C1Nc2ccccc2/C1=N/N=C/c1cccc(O)c1	-31	-16	9.5	7	1	1	0.3	i	-13	nt
CC(=O)c1c(C(C)=O)c(C)n(-c2ccc(N)cc2)c1C	nt	-1	-1.2	-12	nt	nt	nt	nt	2	-17
CCOC(=O)c1c(SCc2ccccc2)n[nH]c1N	3.7	-32	9.3	-5	9	-3	-0.9	i	-5	17
CC1Sc2ccc(S(=O)(=O)N3CCC(C(N)=O)CC3)cc2NC1=O (stereo not given)	-0.4	-15	-0.2	-2	4	10	-1.0	i	-6	-13
O=C(OCC(=O)N1CCN(C(=O)c2ccco2)CC1)C1=COCCO1	nt	1	1.9	-4	nt	nt	nt	nt	1	-8
c1ccc(CCc2cn(C[C@H]3CC[C@@H]([C@@H]4CC[C@H](Cn5cc(CCc6ccccc6)nn5)O4)O3)nn2)cc1	-0.5	-3	-7.3	4	2	-2	-7.9	i	3	3
CCO[C@@H]1OC(C(=O)N2CCCCCCC2)=C[C@H](c2ccc(C(F)(F)F)cc2)[C@H]1CCCO	-76	27	-2.1	3	-26	-47	13	i	7	1
CC(=O)NC(Cc1ccccc1)C(C)=O (stereo not given)	-3.8	4	-4.2	-6	13	13	0.9	i	10	-3
CCOC(=O)C1CCCN(CC(=O)Nc2cccc(C(C)=O)c2)C1 (stereo not given)	-0.5	2	-0.9	0	2	0	1.8	i	0	-10
CCOC(=O)N1CCN(C(=O)CNC(=O)c2ccc(Br)cc2)CC1	0.6	-4	0.2	2	5	10	-0.2	i	0	-1
Clc1ccc(NC2=NCCC2)cc1Cl	nt	22	?	-7	nt	nt	nt	nt	10	3
O=C(CNC(=O)c1ccccc1)NCC(=O)OCC(=O)c1ccccc1	-1.2	-7	-0.7	0	23	17	-0.7	nt	-2	-1
CC(=O)N1CCCc2cc(S(=O)(=O)N3CCC(C)CC3)ccc21	-19	3	4.6	6	-8	-3	-2.9	i	3	-4
CCOc1ccc(-n2c(COc3ccccc3)nnc2SCC(N)=O)cc1	nt	-1	-1.1	4	nt	nt	nt	nt	-1	nt
c1ccc(C2[C@H]3CN(CC4CCCCC4)[C@H](c4ccccc4)C34CC2(c2cccnc2)C4)cc1 (stereo not given in full)	4.7	21	-0.1	3	-12	-23	-0.2	i	2	-40
CCC(C)(C)NC(=O)C1CCN(S(=O)(=O)c2cccs2)CC1	-1.9	-9	1.0	nt	9	10	1.3	i	-6	nt
CCOc1ccc(S(=O)(=O)n2cc(F)c(=O)[nH]c2=O)cc1[N+](=O)[O-]	-4.9	-5	1.4	-1	-1	-1	-5.6	i	24	-10
CCCCN(C(=O)/C=C/c1ccc(OC)cc1)C1CCS(=O)(=O)C1 (stereo not given)	1.3	7	2.7	-5	-3	-1	0.9	i	nt	-4
Cc1ccc(SCc2cc(=O)[nH]c(/N=C(\N)Nc3ccc(C)c(C)c3)n2)cc1	2.9	-39	?	0	10	3	0.9	i	-7	-7
COC(=O)N1CC=CC1(C)C(=O)NCc1cc(F)cc(C(F)(F)F)c1 (stereo not given)	1.7	-19	5.2	-7	3	-1	-2.6	i	-12	-19
CCc1ccc(OCC(=O)NC(=S)Nc2ccc(C(C)=O)cc2)c(Br)c1	-0.2	2	4.8	nt	3	3	0.3	i	6	-4
O=C(CNC(=O)c1ccco1)Nc1cccc(Cl)c1	-3.0	-9	-1.2	-7	9	21	0.5	i	-4	6
